2A StopGo = FMDV 2A StopGo reporter, luciferase signal. human cells with a luciferase reporter of 2A StopGo recoding; control for the full effect not named in the record. Potency, µM (top dose mostly 57.9 µM), inactives show at the top dose signal change, negative = less light. actives 1.2% (n = 410,000); active = well fitted falling curve with a large enough effect; inconclusive = small, poorly fitted or top-dose-only effect; inactive = no such curve, though single readings can be large or run the other way; tested in HEK293T cells; further: on the % scale 0 is the no-effect control and ±100 the full control effect; nearly all actives have a fitted effect of over 45% in size; luciferase light after 4 h
Cruzain inh Det = cruzain (T. cruzi) inhibition with detergent. actives 0.43% (n = 200,000). purified cruzain, Z-FR-AMC fluorescence, 0.01% Triton. Potency, µM, inactives show max response, negative = inhibition, most hits filed as inhibitors. P25779; active means well fitted curve in the direction sought with a large enough effect; inconclusive means small, poorly fitted or top-dose-only effect, or another doubt; inactive means no such curve, though single readings can be large; an effect the other way counts as inactive or inconclusive;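 further: plate controls were neutral wells for no effect and buffer without enzyme for full effect; nearly all actives have a fitted effect of over 40% in size; top concentration of the series not given in the record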
Target sequence (P25779 123-467 limits assumed): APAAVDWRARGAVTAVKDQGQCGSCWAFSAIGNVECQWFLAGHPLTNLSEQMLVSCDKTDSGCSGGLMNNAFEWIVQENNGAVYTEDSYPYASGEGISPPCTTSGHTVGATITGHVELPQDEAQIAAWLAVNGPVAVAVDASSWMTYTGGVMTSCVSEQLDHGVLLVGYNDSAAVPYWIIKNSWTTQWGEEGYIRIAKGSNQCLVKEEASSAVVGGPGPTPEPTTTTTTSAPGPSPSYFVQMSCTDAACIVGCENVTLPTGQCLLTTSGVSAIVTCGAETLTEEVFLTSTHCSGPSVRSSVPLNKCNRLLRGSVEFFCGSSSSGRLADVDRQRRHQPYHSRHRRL
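Detergent-containing run (0.01% Triton X-100) in acetate buffer pH 5.5 with 5 mM DTT: enzyme at 1.5 nM final, 15 min compound preincubation at room temperature, then 2 uM Z-FR-AMC substrate. Activity taken as 60 s fluorescence increase at 360/450 nm.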
MARV entry inh = inhibitors of Marburg virus binding or cell entry | Potency, µM (titrated, usually from 37.8 µM), for inactives: top-dose activity change, negative = inhibition, actives largely listed as inhibitors | actives 1.8% (n = 300,000) | Marburg virus pseudotyped entry inhibition, cell reporter; control for the full effect not named in the record; about a third of the inactives were read at about 46 µM; active = well fitted inhibition curve with a large enough effect; inconclusive = small, poorly fitted or top-dose-only effect, or effect the other way; inactive = flat fitted curve, though single readings scatter; tested in HEK293 cells; about a fifth of its hits are not listed in these tables; further: on the % scale 0 is the no-effect control and ±100 the full control effect; luciferase read-out
RE007 growth inh = less growth of the S. pombe RE007 Vpr strain | S. pombe RE007 Vpr strain, BacTiter-Glo ATP luminescence, 24 h; control for the full effect not named in the record | Potency, µM (top dose mostly 92.2 µM), for the others: at the highest dose activity change, negative = less growth | actives 0.21% (n = 360,000) | AID 651644; active = well fitted falling curve with a large enough effect; inconclusive = small, poorly fitted or top-dose-only effect; inactive = no such curve, though single readings can be large or run the other way;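 further: on the % scale 0 is the no-effect control and ±100 the full control effect; nearly all actives have a fitted effect of over 50% in size; the assay follows cell death caused by Vpr and the record does not say whether a fall means rescue or toxicity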
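Fission yeast strain RE007, carrying one chromosomally integrated HIV-1 vpr copy, was seeded at OD 0.01 in PMG+AL medium with 23 nL pinned compound. After 24 h at 30 °C and 99% humidity, viability was read by BacTiter-Glo luminescence.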
Cruzain noTriton = inhibitors of Trypanosoma cruzi cruzain without detergent. P25779. purified cruzain, Z-FR-AMC fluorescence, no detergent. Potency, µM, for inactives: max response, negative = inhibition, hits mostly inhibitors. actives 2.3% (n = 200,000); active means well fitted curve in the direction sought with a large enough effect; inconclusive means small, poorly fitted or top-dose-only effect, or another doubt; inactive means no such curve, though single readings can be large; an effect the other way counts as inactive or inconclusive;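 further: plate controls were enzyme without inhibitor for no effect and buffer without enzyme for full effect; nearly all actives have a fitted effect of over 40% in size; top concentration of the series not given in the record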
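Detergent-free condition (0.00005% Triton X-100) in acetate buffer pH 5.5 with DTT. 1.5 nM enzyme and compound were pre-mixed 15 min, then 2 uM Z-FR-AMC substrate added; reaction progress from fluorescence change between first and third reads (60 s).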
SARS PLP yeast = inhibitors of SARS-CoV papain-like protease in yeast | S. cerevisiae expressing SARS-CoV PLpro, growth rescue; control for the full effect not named in the record | Potency, µM (titrated, usually from 32.9 µM), for the others: at the top dose activity, positive = growth rescue | actives 0.19% (n = 330,000) | AID 485353; further: 0% is about no effect; nearly all actives have a fitted effect of over 55% in size; growth read by luminescence after 48 h
NS1 inh = influenza NS1 inhibition | Potency, µM (titrated, usually from 46.1 µM), for the others: at the highest dose activity, positive = more growth | S. cerevisiae slowed by influenza A NS1, growth recovery by OD600 | actives 0.4% (n = 270,000); further: actives are rising curves; nearly all actives have a fitted effect of over 50% in size
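A cell-based growth assay was used: compounds that relieve NS1-induced slow growth of budding yeast raise OD600. Assay medium was yeast nitrogen base with ammonium sulphate and -URA supplement, pH 6.0, with 2% galactose.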
LASV entry inh = blocks Lassa virus binding to or entry into cells; Potency, µM (series often up to 37.9 µM), for the others: top-dose activity change, negative = inhibition, usual class: inhibitors; Lassa virus pseudotype entry inhibition, cell reporter; control for the full effect not named in the record; AID 540256; actives 1.2% (n = 300,000); active means well fitted inhibition curve with a large enough effect; inconclusive means small, poorly fitted or top-dose-only effect, or effect the other way; inactive means flat fitted curve, though single readings scatter; tested in HEK293 cells; further: on the % scale 0 is the no-effect control and ±100 the full control effect; nearly all actives have a fitted effect of over 50% in size; luciferase read-out
* = called active by the depositor; ? = inconclusive; / = not tested or not shown; & = joins results of further samples; [ ] = dose if it differs, or a comment. Unless noted, the call rests on the fitted dose curve; in most records, active means well fitted rising curve with a large enough effect; inconclusive means small, poorly fitted or top-dose-only effect; inactive means no such curve, though single readings can be large or run the other way. Potency means the concentration at half of the fitted maximal effect.

SMILES	2A StopGo	Cruzain inh Det	MARV entry inh	RE007 growth inh	Cruzain noTriton	SARS PLP yeast	NS1 inh	LASV entry inh
COc1ccc(-c2c(NC(=O)c3ccco3)n(-c3ccc(C)cc3)nc(C)c2=O)cc1	-16%	/	/	-10%	/	-1%	-13%	/
CCN1C(=O)C(Cc2nc3ccccc3c(=O)n2-c2ccccc2)c2cc(Br)ccc21 (stereo not given)	?	-3.8%	?	/	?	/	/	-14%[46.1 µM]
CN(C)C(=O)COc1ccc2c(-c3ccccc3)cc(=O)oc2c1	2%	/	/	3%	/	-2%	-6%	/
Nn1c(SCc2ccc(Br)cc2)nnc1-c1ccccn1	?	/	?	9%	/	0%	5%	4%[46.1 µM]
O=c1[nH]c(CCl)nc2cc(-c3ccc(Cl)cc3)sc12	-80%	-0.2%	?	-10%	-4%	-5%	-7%	10µM*
CC(=O)N1CCCc2cc(S(=O)(=O)N(C)CC(=O)Nc3ccc(Cl)cc3C)ccc21	?	-1.4%	/	/	?	/	/	-17%[46.1 µM]
COc1ccc(CC(=O)Nc2ccc(-c3nc4ccccc4s3)cc2Cl)cc1	-15%	-1.4%	/	/	-19%	/	/	8%[46.1 µM]
CCOC(=O)c1cccc(NC(=O)CN(C)S(=O)(=O)c2cnc[nH]2)c1	0%	2.0%	17%	6%	7%	9%	2%	5%
Cc1cc2c(cc1S(=O)(=O)NCc1ccccc1)n(C)c(=O)c(=O)n2C	-11%	/	/	-12%	/	-8%	2%	/
CCCCCCC(C)NC(=S)Nc1cc(S(=O)(=O)N(C)C)ccc1C (stereo not given)	?	-5.9%	?	4%	15%	9%	4%	-1%
COc1ccc(C(=O)NC2CC2)cc1OC1CCN(Cc2ccccc2)CC1	-15%	/	14%	-5%	/	4%	6%	10%
CCCOc1ccc(NC(=O)C2CC(=O)N(C)C(=Nc3cccc(OC)c3)S2)cc1 (stereo not given)	-18%	/	-17%[46.1 µM]	-2%	/	0%	1%	-18%
C=CCn1c(SCC(=O)c2ccc(O)c(O)c2)nnc1-c1cccnc1	14%	/	/	-13%	/	-1%	5%	/
CS(=O)(=O)N(Cc1ccc(Cl)cc1)c1ccc(C(=O)N2CCN(c3ccccc3)CC2)cc1	?	-3.9%	?	6%	?	-14%	17%	-23%
Cc1ccccc1C(=O)N1CCC(C(=O)Nc2nccs2)CC1	7%	/	29%[46.1 µM]	7%	/	6%	/	11%[46.1 µM]
Cc1cnc(C(=O)OCC(=O)N=c2sccn2Cc2ccccc2Cl)cn1	0%	/	/	0%	/	-1%	-1%	/
CN1C(=O)/C(=C/c2ccc(O)c([N+](=O)[O-])c2)N(C)C1=S	6%	/	/	-26%	/	-1%	-31%	/
CC(=O)Oc1ccc(C(=O)[C@H]2[C@H]3C(=O)N(c4ccccc4)C(=O)[C@H]3[C@@H]3C=CC=NN32)cc1	-4%	0.4%	?	2%	19%	-9%	?	0%
COc1ccccc1Cc1nc2ccccc2nc1SCC(=O)Nc1ccc2c(c1)OCO2	-5%	0.1%	/	/	-2%	/	/	14%[46.1 µM]
COc1ccccc1OCCNC(=O)Cc1ccc(Cl)c(Cl)c1	7%	/	?	-2%	/	-6%	/	-24%
C#CCNC(=O)C1=C[C@H](c2ccc(Br)cc2)C[C@H](OCCCCO)O1	-20%	/	/	-4%	/	-2%	-5%	/
Cc1cccc(C(=O)N=c2sccn2C)c1[N+](=O)[O-]	0%	/	/	-10%	/	-10%	6%	/
NC(=O)C1CCN(C(=O)c2ccc(Oc3cc(Cl)cc(Cl)c3)o2)CC1	0%	/	/	-20%	/	0%	1%	/
O=C(OCCCOC(=O)c1ccc(Br)o1)c1ccc(Br)o1	-10%	/	-5%	?	/	3%	/	4%
Cc1cc2nc(-c3ccc(SCC(=O)Nc4ccc5c(c4)OCCO5)nc3)[nH]c2cc1C	/	-5.4%	?	-29%	16µM*	-8%	1.3µM*	-16%
Cc1onc(-c2ccccc2)c1C(=O)Nc1cccnc1	-5%	5.6%	20%	3%	0%	5%	6.3µM*	?
Cc1ccc(C)n1-c1nn(S(=O)(=O)c2cccc3cccnc23)c2cccc(F)c12	-1%	/	?	6%	/	-4%	11%	-17%
Cc1cc(C)cc(C(=O)Nc2ccc(-c3cn4cccnc4n3)cc2)c1	-29%	-4.7%	-1%[46.1 µM]	/	-3%	/	/	-14%[46.1 µM]
CCOC(=O)c1ccc2c(c1)nc(SC/C(O)=C(\C#N)c1nc3ccccc3[nH]1)n2CC	-13%	4.4%	-7%	5%	3%	6%	3%	?
COc1ccc(CCNC(=O)C2CCCN(S(=O)(=O)c3ccccc3)C2)cc1 (stereo not given)	-17%	/	-13%	14%	/	1%	-4%	-2%
Cc1cc(C)nc(-n2nc(C)cc2NC(=O)CN2CCc3ccccc3C2)n1	?	3.9%	?	55%	?	1%	-43%	?
Cc1ccc(N2CC(C(=O)Nc3nccs3)CC2=O)cc1 (stereo not given)	12%	2.1%	-9%	-2%	5%	13%	-7%	-10%
CCCN1C(=O)/C(=N\OCC(=O)NCC(F)(F)F)c2ccccc21	-10%	-3.3%	4%	4%	-4%	3%	-5%	-6%
CCOc1ccc(/C(O)=C2/C(=O)C(=O)N(c3ncccn3)C2c2ccccc2)cc1 (stereo not given)	-3%	-6.3%	-10%	6%	-12%	8%	2µM*	1%
COC(=O)Nc1ccc(S(=O)(=O)NCCO)cc1	33%[activator]	0.8%	-2%	17%	-7%	-1%	1%	8%
O=S(=O)(c1ccc(NC(=S)NCc2ccco2)cc1)N1CCCC1	20%	-5.2%	6%	0%	-17%	3%	15%	-1%
CCc1nnc(NC(=O)CSc2nnc(-c3ccc(S(=O)(=O)N4CCCC4)cc3)n2CC)s1	-8%	2.7%	-6%	14%	?	21%	15%	0%
Cc1csc(=O)n1CCC(=O)OCC(=O)NNC(=O)c1ccccc1	9%	/	-10%	-8%	/	-8%	/	?
Cc1ccccc1NC(=O)/C(=C/c1ccccc1)c1ccccc1	-23%	-1.5%	?	1%	-5%	-21%	-21%	-4%
Cc1cc(C)n(CC2CC(=O)N(c3ccc(Cl)c(Cl)c3)C2=O)n1 (stereo not given)	-10%	0.5%	-6%&-8%	0%	18%	3%	-20%	-13%
CCN(CC)CCNC(=O)c1ccc(NC(=O)C2CCN(c3ncnc4sc(C)c(C)c34)CC2)cc1	?	/	/	6%	/	8%	-14%	/
CCc1ccc(NC(=O)COC(=O)CC2CCCC2)cc1	-11%	/	21%	-9%	/	-14%	/	1%
CCSc1nnc2c(n1)OC(CC)N(C(C)=O)c1ccccc1-2 (stereo not given)	10%	4.2%	17%[46.1 µM]	/	2%	/	/	11%[46.1 µM]
CC(C)CCN1CCC(n2nccc2NC(=O)c2ccc3c(c2)OCO3)CC1	-8%	/	15%[46.1 µM]	7%	/	-1%	13%	?
COc1ccc(OC)c(NC(=O)C2C(C(=O)O)C3(Cl)C(Cl)=C(Cl)C2(Cl)C3(Cl)Cl)c1 (stereo not given)	-21%	/	-10%[46.1 µM]	-10%	/	1%	13%	-11%[46.1 µM]
COc1ccc(CCNC(=O)CCCCC(=O)NCCc2ccc(OC)c(OC)c2)cc1OC	-6%	/	4%[46.1 µM]	35%	/	/	/	1%[46.1 µM]
Cc1cccc(N2CCN(C(=O)CCNS(=O)(=O)c3ccc4c(c3)oc(=O)n4C)CC2)c1C	?	/	?	-5%	/	-6%	0%	?
Cc1ccc(CNC(=O)CSc2ncc(C(=O)Nc3ccccc3)c(=O)n2C)cc1	-15%	/	?	-3%	/	-3%	/	-6%

Single records (already shown). Order of screens: 2A StopGo	Cruzain inh Det	MARV entry inh	RE007 growth inh	Cruzain noTriton	SARS PLP yeast	NS1 inh	LASV entry inh
Cc1ccccc1NC(=O)/C(=C/c1ccccc1)c1ccccc1 is entered as -23%	-1.5%	?	1%	-5%	-21%	-21%	-4%
CCc1ccc(NC(=O)COC(=O)CC2CCCC2)cc1 is entered as -11%	/	21%	-9%	/	-14%	/	1%

Following part:
SMILES	2A StopGo	Cruzain inh Det	MARV entry inh	RE007 growth inh	Cruzain noTriton	SARS PLP yeast	NS1 inh	LASV entry inh
Cc1ccc(S(=O)(=O)NN=C2C3CC4CC(C3)CC2C4)cc1[N+](=O)[O-]	36%[activator]	0.2%	-34%	30%	-2%	5%	-5%	-1%
O=C(N/N=C/c1sc(N2CCOCC2)nc1-c1ccccc1)c1cccc(S(=O)(=O)N2CCCC2)c1	?	/	?	-1%	/	0%	-9%	?
O=C(COC(=O)COc1ccc(Br)cc1)NC1CCCC1	0%	/	?	11%	/	-16%	/	3%
CCc1ccc(OCC(=O)Nc2c(C(=O)c3ccccc3)oc3ccccc23)cc1	-19%	-0.3%	?	/	-1%	/	/	?
C/C(=N\NC(=O)c1cc(-c2ccc(O)cc2)nc2ccccc12)c1cccnc1	22%	/	12%	6%	/	0%	-5%	23%
Cc1cc(OCCOCCNCc2ccccc2)ccc1C(C)C	-26%	/	/	-3%	/	-5%	-25%	/
Cc1cccc(C)c1NC(=O)COC(=O)c1cc(-c2cccnc2)nc2ccccc12	-17%	-5.2%	7%	5%	18%	9%	5%	/

Structures shown so far that contain a furan ring, fused or not, in the order listed:
SMILES	2A StopGo	Cruzain inh Det	MARV entry inh	RE007 growth inh	Cruzain noTriton	SARS PLP yeast	NS1 inh	LASV entry inh
COc1ccc(-c2c(NC(=O)c3ccco3)n(-c3ccc(C)cc3)nc(C)c2=O)cc1	-16%	/	/	-10%	/	-1%	-13%	/
NC(=O)C1CCN(C(=O)c2ccc(Oc3cc(Cl)cc(Cl)c3)o2)CC1	0%	/	/	-20%	/	0%	1%	/
O=C(OCCCOC(=O)c1ccc(Br)o1)c1ccc(Br)o1	-10%	/	-5%	?	/	3%	/	4%
O=S(=O)(c1ccc(NC(=S)NCc2ccco2)cc1)N1CCCC1	20%	-5.2%	6%	0%	-17%	3%	15%	-1%
CCc1ccc(OCC(=O)Nc2c(C(=O)c3ccccc3)oc3ccccc23)cc1	-19%	-0.3%	?	/	-1%	/	/	?
